Assay outcomes (PubChem BioAssay)
VACV mCherry inh – qHTS for Stage-Specific Inhibitors of Vaccinia Orthopoxvirus: mCherry Reporter Primary qHTS; Vaccinia virus mCherry reporter infection, fluorescence; about a quarter of the inactives have no number; Potency, µM (series often up to 36.5 µM), for the others: at the top dose activity change, negative = inhibition, actives largely listed as inhibitors; 310,000 compounds, 0.63% hits; AID 720579, 2013; active = well fitted inhibition curve with a large enough effect; inconclusive = small, poorly fitted or top-dose-only effect; inactive = no such curve, though single readings can be large or run the other way; tested in A549 cells; note: nearly all actives have a fitted effect of over 35% in size; inactives centre near -10
VACV Venus inh – qHTS for Stage-Specific Inhibitors of Vaccinia Orthopoxvirus: Venus Reporter Primary qHTS | Potency, µM (series often up to 36.5 µM), inactives show at the highest dose activity change, negative = inhibition, most hits filed as inhibitors | AID 720580, 2013 | Vaccinia virus Venus reporter expression, fluorescence | 330,000 compounds, 0.46% hits; active means well fitted inhibition curve with a large enough effect; inconclusive means small, poorly fitted or top-dose-only effect; inactive means no such curve, though single readings can be large or run the other way; tested in A549 cells; note: nearly all actives have a fitted effect of over 30% in size; inactives centre near -10
An asterisk follows results filed as active; i = inactive; ? = inconclusive; . = not tested or not shown; [ ] = dose if it differs, or a comment. % is set by controls: 0 for no effect and ±100 for the full control effect; potency is the fitted concentration of half-maximal effect.

SMILES | VACV mCherry inh | VACV Venus inh
CCOC(=O)c1ccc(NC(=O)CCn2c(=O)c3cccn3c3cccnc32)cc1 | -8.4% | 4.0%
O=C(/C=C/c1ccc2c(c1)OCCO2)c1ccc(O)cc1 | ? | ?
C#CCOCCOCCOCCNc1nc(N2CCN(C(=O)C([C@@H](C)CC)n3cc(C(N)COC(=O)C(F)(F)F)nn3)CC2)nc(N2CCN(C(=O)[C@H](Cc3ccc(O)cc3)n3cc(C(N)[C@H](C)CC)nn3)CC2)n1 (some centres undefined) | i | -1.8%
O=C(NC1CC2CCCC(C1)N2S(=O)(=O)c1ccccc1)C1CCCCC1 (centres undefined) | -10.9% | -4.4%
COc1cccc(N=C2SC(C(=O)Nc3cccc(Cl)c3)CC(=O)N2C)c1 (centres undefined) | -8.2% | -7.7%
COc1ccccc1OCC(=O)Nc1cc(S(=O)(=O)N2CCOCC2)ccc1N1CCCCC1 | ? | -19.3%
Cc1ccc2nc(N(CCCN(C)C)C(=O)c3ccc4ncsc4c3)sc2c1 | -10.9% | -19.8%
COC(=O)c1ccc2[nH]c(C(C)(C)O)c(C)c2c1 | i | -5.7%
Cc1cc(C)cc(NC(=S)NN)c1 | -3.8% | -8.5%
Cc1ccc(C(=O)NCCCNc2ccccc2[N+](=O)[O-])cc1 | i | -17.5%
CCC(C)(C)NC(=O)C(c1ccc(OC)cc1)N(Cc1ccc(OC)cc1)C(=O)CCC(=O)Nc1cc(C)on1 (centres undefined) | -7.1% | -2.4%
O=C(OCC(=O)N1CCCC1)c1cc(Cl)ccc1Cl | -22.0% | -15.1%
Cc1cc(C)c2nc(-c3ccncc3)cc(C(=O)N3CCN(Cc4ccccc4Cl)CC3)c2c1 | -18.2% | -24.4%
Cc1ccc(C)c(NC(=O)c2cnc3sc(N4CCOCC4)nn3c2=O)c1 | -1.0% | -8.1%
O=C(CSc1cn(CCNC(=O)c2cccs2)c2ccccc12)NCC1CCCO1 (centres undefined) | 2.2% | 4.2%
O=C(COc1ccccc1)NCc1ccco1 | -11.9% | -6.9%
Cc1ccccc1C(=O)N(Cc1ccc(N(C)C)cc1)Cc1ccco1 | -14.6% | -7.6%
CC1CN(C(=O)CCC(=O)NCCCc2ccccc2)c2ccccc2O1 (centres undefined) | 9.6% | 3.5%
Cc1nc(S(=O)(=O)c2cccc(Cl)c2)nc2c1CCC2 | -1.1% | -17.4%
O=C(c1cc(=O)[nH]c2ccccc12)N1CCN(c2cccc(C(F)(F)F)c2)CC1 | -18.1% | -8.4%
CC(C)(O)C#Cc1ccc(CNC[C@H]2O[C@@H](n3cnc4c(N)ncnc43)[C@H](O)[C@@H]2O)s1 | i | -2.4%
CC1=C(c2ccc(Cl)cc2)S(=O)(=O)NC1=NCCCN1CCN(c2cc(C)ccc2C)CC1 | 10µM* | 11.2µM*
COc1cccc2sc(N(Cc3cccnc3)C(=O)c3ccco3)nc12 | -6.9% | -16.0%
N#Cc1ccc(S(=O)(=O)N2CCN(C(=O)C3CC(=O)N(c4ccc5c(c4)OCCO5)C3)CC2)cc1 (centres undefined) | 9.2% | -17.1%
Nc1nnn(CC(=O)N/N=C/C=C/c2ccccc2)n1 | -0.2% | -3.1%
Cc1cnc(C(=O)OCC(=O)Nc2cccc(C)c2C)cn1 | -16.5% | -14.9%
COc1ccc(C2CC(=O)c3cnc(NC(=O)c4cc(OC)cc(OC)c4)nc3C2)cc1 (centres undefined) | -23.9% | -17.5%
CCC(CO)Oc1cc(NCc2ccc(C(=O)O)cc2)c2ncn(C(C)C)c2c1 (centres undefined) | i | -22.1%
NC(=O)c1ccc(NC(=O)CCCN2C(=O)NC3(CCCC3)C2=O)cc1 | -14.1% | -4.7%
O=C(CN(Cc1ccc(Br)cc1)S(=O)(=O)c1ccccc1)NCc1cccnc1 | -1.8% | -12.5%
Cc1cc(C)cc(NC(=O)C2C3C=CC4(O3)C2C(=O)N(CCCN(C)C)C4C(=O)NC2CCCC(C)C2C)c1 (centres undefined) | -11.6% | -5.3%
COC(=O)C1=C(c2ccc(Cl)c(C(F)(F)F)c2)C[C@@H]2CC[C@H]1N2C(=O)N1CCCC1 | -5.5% | -26.6%
Cc1ccccc1OCCCC(=O)Nc1ccccc1C(F)(F)F | -11.8% | -1.6%
COc1ccc(-c2noc(CN(C(=O)c3c(-c4ccccc4Cl)noc3C)C(C)C)n2)cc1 | . | -28.8%
COCC1CCN(Cc2cn[nH]c2-c2ccc(OC)c(F)c2)C1 (centres undefined) | i | -10.8%
O=C(NN1CCOCC1)c1cc(-c2ccc(Br)cc2)nc2ccccc12 | -5.9% | -1.2%
CCN(CC)S(=O)(=O)c1ccc2nc(NC(=O)c3cccnc3)sc2c1 | 1.2% | -11.6%
CCC(=O)Nc1ccc(Br)cn1 | -14.3% | -11.4%
CN(C)CCCNc1nc2cc(-c3ccsc3)sc2c(=O)n1C | i | -6.1%
CCCCn1c(N)c(N(CCOC)C(=O)c2cccc(S(=O)(=O)N(C)c3ccccc3)c2)c(=O)[nH]c1=O | i | -9.4%
CCc1ccccc1NC(=O)CCCN1C(=O)c2cccnc2C1=O | -23.1% | -12.3%
CC(C)NC(=O)C1(C)CCN1Cc1cccc(Cl)c1 (centres undefined) | i | 2.5%
O=C(CCNC(=O)c1ccc(Br)cc1)NNC(=O)c1ccccc1O | ? | -18.8%
COc1cc(C(=O)OCCN2CCOCC2)ccc1O | -3.8% | -16.6%
OC1(c2cccc(C(F)(F)F)c2)CCN(Cc2nnnn2Cc2ccccc2)CC1 | ? | -12.8%
CCOc1ccc2c(c1)nc(C)n2C | i | -12.5%
C=C1C2CC[C@@]3(C)C(c4ccoc4)OC(=O)C[C@@]13OC1CC(OC(C)=O)C(C)(C)C(CC(=O)OC)[C@@]12C (some centres undefined) | -12.3% | -11.6%
O=C1NC[C@H](CCCCN2CCN(CC3CCCCC3)C(=O)C2=O)N(Cc2ccccc2)C1=O | -6.2% | -0.7%
COCC1=C(C(=O)OC)C(c2ccco2)n2ncnc2N1 (centres undefined) | -14.5% | -12.6%
O=C(NC1CCCCC1)C1c2ccccc2OCC(=O)N1CCc1c[nH]c2ccccc12 (centres undefined) | -9.9% | 5.0%
CC(OC(=O)c1cccs1)C(=O)NCCc1ccccc1 (centres undefined) | 25.2% | -5.5%
N#CC(=Cc1ccc(O)cc1)C(N)=C(C#N)C#N | i | -5.6%
CCc1nc2ccc(C(=O)NCCOc3ccc(OC)cc3)cn2c1N(C)Cc1cccs1 | 39.9%[activator] | 5.0%
O=C(NCc1ccncc1)C(=O)Nc1nc(C23CC4CC(CC(C4)C2)C3)cs1 | -24.9% | -28.9%
Cc1ccccc1NC(=O)c1sc(Cl)nc1C | 10µM* | ?
Cc1c(NC(=O)CSc2ncn[nH]2)c(=O)n(-c2ccccc2)n1C | -0.1%[1.46 µM] | -11.5%
COc1cc(C)c2sc3ccccc3c(=O)c2c1NCCN(C)C | ? | ?
COCCNC(=O)CN(C)S(=O)(=O)c1ccc(Br)cc1 | i | -14.6%
CCn1cc(C(=O)NC(=S)Nc2sc3c(c2C(=O)OC)CCCCCC3)cn1 | -12.0% | -15.0%
CCOC(=O)N1CCC(NC(=O)C2CCCN(S(=O)(=O)c3cccnc3)C2)CC1 (centres undefined) | -2.0% | -11.9%

(listing goes on)
SMILES | VACV mCherry inh | VACV Venus inh
CN(CCOc1ccccc1)CC(O)COCc1ccccc1F (centres undefined) | -9.7% | -12.4%
Cc1c(C(c2ccc(Cl)cc2Cl)c2c(O)c3ccccc3oc2=O)c(=O)n(-c2ccccc2)n1C (centres undefined) | -5.7% | -11.4%
Cc1nc2n(c(=O)c1CCN1CCC(c3noc4cc(F)ccc34)CC1)CCC[C@H]2O | -7.3% | -8.2%
COC(=O)c1cc(-c2ccc(OC)cc2)nc2nc(SC)[nH]c(=O)c12 | -2.6% | -18.9%
CSc1cccc(CN2CCC(CO)(Cc3cccc(C(F)(F)F)c3)CC2)c1 | -17.2% | -26.8%
Cc1ccc(OCC(=O)OCC(=O)Nc2sccc2C(N)=O)cc1C | -14.9% | -7.2%
CCc1ccc(NC(=O)Cc2csc(COc3cccc(C)c3)n2)cc1 | -16.1% | -12.2%
Cc1ccc(C(=O)CC2(O)C(=O)N(Cc3ccccc3)c3ccccc32)c(C)c1 (centres undefined) | -16.9% | -21.9%
CC(=O)Nc1ccc(NC(=O)COc2ccc([N+](=O)[O-])cc2)cc1 | -3.3% | 0.5%
O=C(c1cc2ccccc2o1)N1CCOCC1 | -16.9% | -11.9%
COc1ccc(OC)c(NC(=O)CC(NC(C)=O)c2ccccc2)c1 (centres undefined) | 5.9% | -6.2%
O=C(CSc1n[nH]c(-c2cccnc2)n1)Nc1cccc(Cl)c1 | -22.1% | -6.6%

Compound profiles, from the list above.
COc1ccc(OC)c(NC(=O)CC(NC(C)=O)c2ccccc2)c1 (centres undefined) is entered as VACV mCherry inh = 5.9%; VACV Venus inh = -6.2%
Cc1ccc(OCC(=O)OCC(=O)Nc2sccc2C(N)=O)cc1C is entered as VACV mCherry inh = -14.9%; VACV Venus inh = -7.2%

Other records.
SMILES | VACV mCherry inh | VACV Venus inh
Cc1ccc(NC(=S)NCCc2ccccc2)nc1 | -10.6% | -23.7%
COc1ccc(CNC(=O)CCc2nnc3ccc(NCCCN4CCCC4=O)nn23)cc1 | i | -13.4%
O=S(=O)(NCCc1csc(-c2cccnc2)n1)c1ccc(F)cc1 | -22.0% | -12.6%
Cc1noc2ncnc(N3CCCC(C(=O)NC(C)C)C3)c12 (centres undefined) | -16.0% | -13.5%
COc1ccc(CC(=O)NCC(c2cccs2)S(=O)(=O)c2ccc(F)c(C)c2)cc1 (centres undefined) | i | -13.3%
COCC(=O)N(C)C[C@H]1N[C@@](Cc2ccccc2)(C(=O)OC)[C@H]2C(=O)N(C)C(=O)[C@@H]12 | i | -14.2%
O=C(Nc1cccc(C(=O)N2CCCCC2)c1)C1CCC1 | -12.7% | 3.4%
COC(=O)[C@@H]1CCCN1Cc1c(C(=O)N2CCOCC2)nc2c(C)cccn12 | -7.0% | -5.4%
CCOc1cccc(C2/C(=C(/O)c3ccc4c(c3)CC(C)O4)C(=O)C(=O)N2CCN2CCOCC2)c1 (centres undefined) | -26.0% | -12.5%
NC(=O)c1ccc(-n2nnnc2SCc2ccc(F)cc2)cc1 | -9.5% | 0.6%
COC(=O)c1ccc(-n2c(C)cc(/C=N/Nc3nc(C)cc(=O)[nH]3)c2C)cc1 | -4.0% | -15.9%
CC(C)(C)C(=O)C(Cc1ccccc1Cl)n1cncn1 (centres undefined) | -26.3% | -13.2%
COc1cc2c(cc1NC(=O)Nc1cccc(C)c1)oc1ccccc12 | -28.4% | -13.8%
COc1ccc(/C=C\C(=O)NCc2ccc3c(c2)cc(C)n3C)cc1OC | i | 3.3%
O=C(Oc1ccc(-c2nnco2)cc1)C1CCN(C(=O)c2ccc(F)cc2)CC1 | -16.6% | -4.5%
CCn1c(-c2ccc(C(C)(C)C)cc2)n[nH]c1=S | . | -28.3%
COC(=O)c1ccc(C)c(NC(=O)c2ccc(Cn3cc([N+](=O)[O-])cn3)o2)c1 | -3.4% | -7.5%
O=C(CCCc1ccccc1)N1CCN(c2ccc([N+](=O)[O-])cc2)CC1 | . | ?
C/C(=N\Nc1ccc([N+](=O)[O-])cc1[N+](=O)[O-])c1cccnc1 | -0.6% | -6.3%
c1cc2c3c(c1)CCC[N+]3(C1CCCCC1)CCC2 | ? | ?
CC1CCCCN1C(=O)c1cc2nc(-c3ccccc3)cc(-c3ccccc3)n2n1 (centres undefined) | ? | ?
COc1cc(-c2cc(C(=O)Nc3ccccc3N3CCOCC3)c3ccccc3n2)cc(OC)c1OC | -3.7% | -5.0%
CN(C)C=NC(=O)c1cccn1-c1ncc(C(F)(F)F)cc1Cl | i | -3.1%
CC(C)C[C@H](NC(=O)OC(C)(C)C)C(=O)N1CCC(C(=O)O)CC1 | . | -14.8%

A draw from above in order of heavy-atom count, descending:
SMILES | VACV mCherry inh | VACV Venus inh
CC1CCCCN1C(=O)c1cc2nc(-c3ccccc3)cc(-c3ccccc3)n2n1 (centres undefined) | ? | ?
COc1cc2c(cc1NC(=O)Nc1cccc(C)c1)oc1ccccc12 | -28.4% | -13.8%
CN(C)C=NC(=O)c1cccn1-c1ncc(C(F)(F)F)cc1Cl | i | -3.1%
c1cc2c3c(c1)CCC[N+]3(C1CCCCC1)CCC2 | ? | ?
CCn1c(-c2ccc(C(C)(C)C)cc2)n[nH]c1=S | . | -28.3%
